Source: PubChem BioAssay (several laboratories)
Mtb hypoxia rep – inhibitors of hypoxia-regulated fluorescent reporter in Mycobacterium tuberculosis | M. tuberculosis hypoxia-regulated fluorescent reporter, fluorescence | fluorescence inhibition, % (no concentration beside the values) | 0.1% of 300,000 active | AID 1159583;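 active means 35 to 45% if threefold the growth effect, above 45% if 1.5-fold the growth effect; inactive means the rest, general growth blockers included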;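 further: wells of about 50 µL received 100 nL stock; 0% = vehicle wells and 100% = reference inhibitor wells; whole bacteria with a GFP reporter of the hypoxia response; strong numbers were not always called active; many hits fall short of the cut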
PrP UTR inh – suppresses PrP 5' UTR mRNA reporter expression. cell-based PrP 5' UTR mRNA reporter, plate reader. inhibition, % (concentration not given with the values). 0.35% of 340,000 active. AID 488862;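 active means every replicate at 50% or more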;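 further: 0 = median of the neutral control wells; tested in H4 reporter cells; numbers are from one replicate; inactives centre near -14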
ugtP null kill – kills S. aureus RN4220 lacking UgtP | 0.54% of 330,000 active | S. aureus RN4220 ugtP deletion, OD600 growth, 16 h; some inactives read as strong as hits | growth inhibition, % (no concentration beside the values);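 active means z-score under -3 and OD600 up to 0.15 on both plates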;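 further: plate controls were untreated wells for no effect and antibiotic for full effect; wells of about 80 µL received 100 nL stock; the first replicate is given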
BJeLR lethal – kills HRASV12-expressing BJeLR cells | BJeLR (HRASV12) viability, CellTiter-Glo ATP luminescence, 48 h; reference of the scale not given here | 0.17% of 300,000 active | AID 1554 | inhibition, % (test concentration not listed);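 active means replicate mean above 50%; inconclusive means above 50% but judged a plate artefact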;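 further: 50 nL library stock added to about 25 µL; numbers are from one replicate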
Bead autofluor – counter-screen for toxin protease inhibitors: compound fluorescence. AID 624483. 3.1% of 360,000 active. compound autofluorescence counterscreen, microsphere flow cytometry; active compounds read high. fluorescence intensity (test concentration not listed);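 active means at least 3 SD above the mean of all compounds, about 16000 in these data; inconclusive means too few beads counted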;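 further: 100 nL of 1 mM stock went into each well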
Sa RN4220 lethal – kills Staphylococcus aureus RN4220; S. aureus RN4220 growth, OD600, 16 h; inhibition, % (no concentration beside the values); 0.33% of 330,000 active;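 active means z-score of -3 or lower and OD600 up to 0.18 on both plates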;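 further: plate controls were untreated cells for no effect and reference antibiotic for full effect; stock transfer was 100 nL into about 80 µL; one replicate is shown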
Mtb hypoxia rep growth – further read-out of Mtb hypoxia rep, marked with its call; growth inhibition, %; measured here: M. tuberculosis growth (absorbance);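 0% = vehicle and 100% = reference antibiotic; read after six days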
Active calls of the source: *; ? = inconclusive; . = no result given.

SMILES	Mtb hypoxia rep	Mtb hypoxia rep growth	PrP UTR inh	ugtP null kill	BJeLR lethal	Bead autofluor	Sa RN4220 lethal
CCN1CCN(C(=O)c2cc(-c3cccnc3)nc3ccc(Br)cc23)CC1	11	7	-22	3	1	20068*	4.0
Nc1nc(-c2ccc(Cl)cc2Cl)cn1N	.	.	-9	0	-6	4865	0.0
Cc1cccc(N2CCN(C(=O)c3ccc4c(c3)OCCO4)CC2C)c1 (stereo not given)	9	3	-13	14	7	4413	3.6
CC(=O)c1ccc(/C=C/c2nc3ccccc3n2C)o1	8	3	.	1	2	3616	-1.4
COc1ccc(C(C)NC(=O)c2ccncc2)cc1 (stereo not given)	10	12	-15	5	7	3948	1.7
Cn1c(N)c(C(=O)COc2ccc(C#N)cc2)c(=O)n(C)c1=O	-2	8	-4	-2	-4	4105	-5.8
CCOc1ccc(NC(=O)N2CCC(c3ccc(C)cc3)C2)cc1 (stereo not given)	7	2	-5	15	-15	22970*	1.7
CCOC(=O)c1c(C)[nH]c(C(=O)COC(=O)/C=C/c2ccc(OC(F)F)cc2)c1C	16	9	-22	7	-22	2177	5.5
Cc1c(C)n(CCc2ccccc2)c2ncnc(NCCO)c12	10	2	-49	-2	-9	3475	5.5
Cc1cc(O)c(/C=N/OCc2ccc(Cl)cc2Cl)c(=O)o1	.	.	-25	.	-7	3264	.
COC(=O)c1ccc(S(=O)(=O)NNC(=O)c2ccc(S(=O)(=O)N3CCCCC3)cc2)cc1	6	2	-12	-5	-8	1927	3.7
Cc1cccc(Nc2c([N+](=O)[O-])cc(C(=O)N3CC(=O)Nc4ccccc43)cc2[N+](=O)[O-])c1	.	.	-14	.	1	3239	.
Cc1onc(-c2ccccc2)c1C(=O)Nc1ccc(S(=O)(=O)N2CCOCC2)cc1	2	-1	-35	13	-12	3708	2.2
CCOc1ccc(C(=O)OCC(=O)c2c(N)n(C)c(=O)n(C)c2=O)cc1OCC	1	13	-4	-6	-5	3255	7.3
N#CCCn1c(C2CCCCC2)nc2ccccc21	10	11	-16	-7	18	3226	-18
COc1ccc(C2CC(=O)c3cnc(NC(=O)c4ccccc4OC)nc3C2)c(OC)c1 (stereo not given)	20	19	-4	-14	3	3987	-7.1
COc1ccccc1C(=O)NCC(=O)OC(C)C(=O)NC1CCCCC1C (stereo not given)	5	2	-19	4	.	3112	-1.0
CC(=NNC(=O)c1ccccc1O)C1C(=O)c2ccccc2C1=O	10	10	.	9	.	.	36
COc1cc(NC(=O)c2cccs2)c(C(=O)OCC(=O)NC(C)c2ccccc2)cc1OC (stereo not given)	-5	21	11	-28	-3	3461	8.8
O=C(C=NO)NCCCNCc1ccccc1	8	0	.	2	.	.	2.4

Part of the list above, with two lines to a compound:
Results follow in this order: Mtb hypoxia rep	Mtb hypoxia rep growth	PrP UTR inh	ugtP null kill	BJeLR lethal	Bead autofluor	Sa RN4220 lethal
COc1cc(NC(=O)c2cccs2)c(C(=O)OCC(=O)NC(C)c2ccccc2)cc1OC (stereo not given)
→ -5	21	11	-28	-3	3461	8.8
Cc1cc(O)c(/C=N/OCc2ccc(Cl)cc2Cl)c(=O)o1
→ .	.	-25	.	-7	3264	.

More compounds follow.
SMILES	Mtb hypoxia rep	Mtb hypoxia rep growth	PrP UTR inh	ugtP null kill	BJeLR lethal	Bead autofluor	Sa RN4220 lethal
COC(=O)c1cc(C(=O)Nc2ccc(S(N)(=O)=O)cc2)cc([N+](=O)[O-])c1	16	0	-11	-73	1	4621	2.2
COc1ccc(/C=C(\NC(=O)c2ccc(OC)c(OC)c2)C(=O)N2CCN(C)CC2)cc1	13	2	-23	-3	1	4157	3.1
O=C(Nc1ccccc1N1CCOCC1)c1cccnc1	5	4	-19	1	13	3771	4.8
Nc1nc(-c2nc3ccccc3[nH]2)cs1	6	2	-52	-1	9	6021	-0.4
CSc1cc(C)c(OCC(=O)Nc2ccc(NC(C)=O)cc2)c(C)c1	2	8	-2	-1	1	3589	-2.3
COc1ccc(/C=C(\NC(=O)c2ccccc2)C(=O)N/N=C/c2ccncc2)cc1	.	.	-24	.	-7	10037	.
CC(=O)Nc1ccc(N/C=C/C(=O)c2ccc(C)o2)cc1	5	-2	-72	5	-3	6786	1.2
COC(=O)Cc1ccc2sc(-c3ccccc3)nc2c1	-8	-4	-183	11	22	1930	7.1
C[C@H](NC(=O)[C@H]1N2C(=O)c3ccccc3C2SC1(C)C)C(=O)N1CCC[C@H]1CO (stereo not given in full)	.	.	-38	-13	10	5657	4.7
O=C(CSc1ncn[nH]1)Nc1ccccc1C(=O)O	.	.	-9	-6	-2	4618	-2.5
CCOC(=O)C(NC(C)=O)(Nc1ccc(S(=O)(=O)Nc2cc(C)on2)cc1)C(F)(F)F (stereo not given)	.	.	0	-2	3	5111	-7.1
Cc1ccc(-c2nc(NC(=O)CSc3cc(C)c4ccccc4n3)ns2)cc1	.	.	8	16	5	5804	3.3
CC(NCC(=O)Nc1ccccc1C(=O)NC1CC1)c1cccc(C(F)(F)F)c1 (stereo not given)	3	0	-3	1	.	3946	2.5
Cc1ccc(N/C=C2\C(=O)N(c3ccc(F)cc3F)C(c3cccnc3)S2(=O)=O)cc1 (stereo not given)	-8	-10	-15	-7	-6	3083	-6.9
CCCn1c(-c2ccc(F)cc2)cnc1SCC(=O)O	.	.	-6	6	1	4725	3.3
O=C(NCCC1CCCCN1S(=O)(=O)c1ccc(F)cc1)C(=O)NCc1cccnc1 (stereo not given)	12	3	-15	14	0	?	4.8
Cc1ccc([N+](=O)[O-])cc1S(=O)(=O)Nc1ccc(C(=O)NCC2CCCO2)cc1 (stereo not given)	-5	10	-6	5	.	4111	-1.1
NC(=O)C1CC(=O)N(c2ccc(OCC(=O)Nc3ccc(Cl)cc3)cc2)C1 (stereo not given)	7	2	0	14	10	3877	2.2
CC(=O)Nc1c(O)nc(SCC(=O)Nc2nnc(SCc3ccccc3)s2)[nH]c1=O	5	7	-27	-6	8	4093	4.5
CN(N)c1nc(N2CCCC2)nc(N2CCCC2)n1	7	3	-18	6	-3	4310	0.2
O=c1cc(/C=C/c2ccccc2)oc2ccccc12	5	7	-109	-26	8	22100*	15
O=C(CN1C(=O)CSCC1=O)Nc1ccc2c(c1)OCO2	6	3	-17	7	-2	2355	3.6
CCC(C)NC(=O)N[C@@H](Cc1ccccc1)C(=O)O (stereo not given in full)	.	.	-8	.	-7	3292	.
CCCCNC(=O)C1(N2C(=O)c3ccccc3C2=O)CCCC1	-2	-9	.	1	.	3856	0.3
CC(C)c1ccc(C2c3[nH]c4ccccc4c3C[C@H]3C(=O)N(c4ccccc4C(=O)N4CCC(C(=O)O)CC4)C(=O)N23)cc1 (stereo not given in full)	.	.	4	6	8	5322	10
Cc1cc(C(=O)NN=Cc2cccc([N+](=O)[O-])c2)c(C)o1	6	7	.	-8	.	.	-0.2
Cc1c([N+](=O)[O-])c([N+](=O)[O-])nn1CC(=O)NCCc1ccccc1	11	6	-16	22	5	2401	-7.0
CC(C)CN(CC(C)C)c1nnc(N)s1	.	.	3	1	0	5855	1.6
CCOC(=O)c1ccc2c(c1)nc(SCC(=O)NC(C)C)n2CC	16	4	-35	-1	-6	19418*	7.4
Cc1ccc(NC(=O)N2CCCC2C(=O)Nc2c(C)cc(C)cc2C)cc1 (stereo not given)	12	8	-11	8	3	5314	2.8
COc1ccc(NC(=O)COC(=O)c2cccn2C)cc1S(=O)(=O)N1CCCCC1	9	3	-12	11	.	2935	6.8
Cc1cc(SC(C)C(=O)Nc2ncc(Cl)cc2Cl)nc2ccccc12 (stereo not given)	-5	6	7	-1	20	1962	-0.1
N#Cc1ccccc1NC(=O)COC(=O)CCc1ccccc1	.	.	-25	.	-13	6369	.
COc1ccccc1N1CCN(C2CCCN(Cc3ccc(Cl)cc3)C2)CC1 (stereo not given)	-2	-3	8	6	-9	3432	1.8
O=S(=O)(NC1=NCCC1)c1ccc(F)cc1F	-3	11	-7	2	11	4214	3.1
CCO[C@H]1OC(C(=O)O)=C[C@@H](C)[C@@H]1CCCO	.	.	-25	.	8	4045	.
COc1ccc(CC(=O)NNC(=O)c2cnccn2)cc1	17	0	-14	1	-6	2045	4.6
CCOc1ccc(C=NNC(=O)C(C)N(c2ccc(OC)cc2)S(C)(=O)=O)cc1 (stereo not given)	4	8	.	8	.	.	2.5
CC(CNC1CCCCC1)OC(=O)c1ccccc1 (stereo not given)	12	1	-14	-4	.	5117	5.5
CCOC(=O)c1cc(-c2ccccc2)sc1NC(=S)Nc1cc(C)ccn1	.	.	-39	.	-9	3283	.
CCOc1ccccc1NS(=O)(=O)c1c(C)[nH]c(C)c1C(=O)N1CCCCC1	4	3	-16	-3	-6	6233	6.3
CCCCCC(=O)NNC(=S)NC(C)=O	-2	1	-15	11	-2	4429	4.5
Cc1cccc(NN=C(C(N)=O)C2=NC(C)(C)Cc3ccccc32)c1	10	10	.	24	.	.	-2.6
CCOc1c(C)cc(S(=O)(=O)NCc2ccccn2)c(C)c1C	13	2	-9	18	13	4053	10
O=C(COC(=O)c1ccc(S(=O)(=O)N2CCCC2)cc1)NCc1cccs1	-1	-1	-24	2	-14	3794	5.2

In the list so far, these have four or more nitrogen atoms:
SMILES	Mtb hypoxia rep	Mtb hypoxia rep growth	PrP UTR inh	ugtP null kill	BJeLR lethal	Bead autofluor	Sa RN4220 lethal
CCN1CCN(C(=O)c2cc(-c3cccnc3)nc3ccc(Br)cc23)CC1	11	7	-22	3	1	20068*	4.0
Nc1nc(-c2ccc(Cl)cc2Cl)cn1N	.	.	-9	0	-6	4865	0.0
Cn1c(N)c(C(=O)COc2ccc(C#N)cc2)c(=O)n(C)c1=O	-2	8	-4	-2	-4	4105	-5.8
Cc1c(C)n(CCc2ccccc2)c2ncnc(NCCO)c12	10	2	-49	-2	-9	3475	5.5
Cc1cccc(Nc2c([N+](=O)[O-])cc(C(=O)N3CC(=O)Nc4ccccc43)cc2[N+](=O)[O-])c1	.	.	-14	.	1	3239	.
Nc1nc(-c2nc3ccccc3[nH]2)cs1	6	2	-52	-1	9	6021	-0.4
COc1ccc(/C=C(\NC(=O)c2ccccc2)C(=O)N/N=C/c2ccncc2)cc1	.	.	-24	.	-7	10037	.
O=C(CSc1ncn[nH]1)Nc1ccccc1C(=O)O	.	.	-9	-6	-2	4618	-2.5
CCOC(=O)C(NC(C)=O)(Nc1ccc(S(=O)(=O)Nc2cc(C)on2)cc1)C(F)(F)F (stereo not given)	.	.	0	-2	3	5111	-7.1
Cc1ccc(-c2nc(NC(=O)CSc3cc(C)c4ccccc4n3)ns2)cc1	.	.	8	16	5	5804	3.3
O=C(NCCC1CCCCN1S(=O)(=O)c1ccc(F)cc1)C(=O)NCc1cccnc1 (stereo not given)	12	3	-15	14	0	?	4.8
CC(=O)Nc1c(O)nc(SCC(=O)Nc2nnc(SCc3ccccc3)s2)[nH]c1=O	5	7	-27	-6	8	4093	4.5
CN(N)c1nc(N2CCCC2)nc(N2CCCC2)n1	7	3	-18	6	-3	4310	0.2
CC(C)c1ccc(C2c3[nH]c4ccccc4c3C[C@H]3C(=O)N(c4ccccc4C(=O)N4CCC(C(=O)O)CC4)C(=O)N23)cc1 (stereo not given in full)	.	.	4	6	8	5322	10
Cc1c([N+](=O)[O-])c([N+](=O)[O-])nn1CC(=O)NCCc1ccccc1	11	6	-16	22	5	2401	-7.0
CC(C)CN(CC(C)C)c1nnc(N)s1	.	.	3	1	0	5855	1.6
COc1ccc(CC(=O)NNC(=O)c2cnccn2)cc1	17	0	-14	1	-6	2045	4.6
Cc1cccc(NN=C(C(N)=O)C2=NC(C)(C)Cc3ccccc32)c1	10	10	.	24	.	.	-2.6
